Compound activity: PubChem, ICCB-Longwood Screening Facility, Harvard Medical School
LANA-nucl inh: inhibitors of KSHV LANA binding to nucleosomes. FITC-LANA1-23 / chicken nucleosome fluorescence polarization; stronger effect = lower value. z-score (no concentration beside the values). 51,000 tested, 0.3% active;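 active = both repeat wells score below -2 in polarization z-score versus plate sample wells, excluding overly bright wells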;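 also: 100 nL library stock added to about 30 µL; numbers are from one replicate; some results filed as inactive read as strong as hits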
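test system = FITC-LANA peptide and chicken nucleosomes | amount = 240 nM purified chicken nucleosomes (480 nM peptide binding sites), final | reagent = 50 nM FITC-LANA1-23 probe | medium = TEN-BT buffer, pH 7.5 | doses = single compound addition by pin transfer, 100 nL per well | timing = 10–45 min, room temperature | detection = fluorescence polarization | repeats = duplicate plates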
BasE inh: blocks the Acinetobacter baumannii siderophore enzyme BasE | purified BasE, fluorescence polarization binding displacement | inhibition, % (test concentration not listed) | 84,000 tested, 0.1% active | AID 485350;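 active = both replicates above 25% with normal brightness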;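 also: 0% = negative plate control signal and 100% = positive plate control signal; stock transfer was 100 nL into about 30 µL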
An asterisk follows results filed as active; x = no result given; & = joins results of further samples. Only part of the results is shown, so the mix of outcomes need not match the whole.

canonical_smiles	LANA-nucl inh	BasE inh
O=C(CN(C(=O)Cn1nnc(-c2cccs2)n1)c1ccc2c(c1)OCCO2)NCC1CCCO1 (stereo not given)	0.58	3.1
CCC(CC)NC(=O)CSc1nc2c(cnn2-c2cccc(C)c2)c(=O)[nH]1	x	0.3
c1ccc(-c2nc(-c3cccs3)[nH]c2-c2ccccc2)cc1	x	0.7
CCc1cccc(CC)c1N(COC)C(=O)CN1c2ccccc2NC1CC (stereo not given)	-0.32	1.1
CCc1ccc(-c2ccc(=O)n(CC(=O)N3CCCCC3)n2)cc1	-0.87	2.1
COCCCn1c(Sc2ccc(S(=O)(=O)N3CCCC3)cn2)nnc1-c1ccccc1Cl	x	1.0
c1ccc(-n2ccnc2)c(-c2ncn[nH]2)c1	-0.33	x
O=C(Cn1ncc2c(Cl)cccc21)NCCN1CCCC1	0.98	0.6
Cc1cccn2cc(CNS(=O)(=O)c3ccccc3F)nc12	0.23	-0.1
O=C(O)CCC(=O)NC(c1ccccc1)c1ccccc1	-0.5	-0.8
COc1ccc(C(=O)NC(=O)CSc2nnc(CN3CCCCCC3=O)n2-c2ccccn2)cc1	x	-2.2
CCOc1ccc(NC(=O)C2CCC(N3C(=O)C4CC=CCC4C3=O)CC2)cc1 (stereo not given)	0.02	3.6
NS(=O)(=O)c1ccc(N2C(=O)C3CC=CCC3C2=O)cc1 (stereo not given)	x	1.8
Cc1cc2nc(NC3=NC(O)C=C(CSc4nc5ccccc5[nH]4)N3)nc(C)c2cc1C (stereo not given)	x	3.2
COC(=O)c1c(C)nc(C)c(C(=O)OC)c1-c1csc(S(=O)(=O)/N=C/N(C)C)c1	x	-5.1
CCN(CC)C(=S)SCc1cccs1	-0.7	0.4
CCC(C(=O)Nc1cc(C)ccc1C)n1nc(C)n2c(cc3cc(C)ccc32)c1=O (stereo not given)	0.4	4.0
O=C(CSc1nnc2c(Cl)cc(C(F)(F)F)cn12)NCC(F)(F)F	x	-0.7
CN(Cc1ccccc1)C(=O)c1ccc(Br)cc1	-0.51	-0.7
O=C1c2cccnc2C(=O)C1c1ccnc2ccccc12 (stereo not given)	0.27	1.8
CCOc1ccc(OCCCn2cnc3ccccc3c2=O)cc1	0.28	0.1
O=C(O)C1(Cc2nc3ccccc3[nH]2)CCCC1	x	-0.5
O=S(=O)(Nc1ccc(-c2cn3ccsc3n2)cc1)c1ccccc1	x	-1.4
O=C(N/N=C/c1ccccc1)N/N=C/c1ccccc1	1.4	2.6
Cc1cc(C)n2nc(C(=O)Nc3sc4c(c3C(N)=O)CCC4)nc2n1	x	-1.2
COc1cc(CN2CCCC(C(=O)N3CCCCCC3)C2)ccc1OCc1ccccc1 (stereo not given)	x	0.2
Cc1nc(/N=C(\N)NC(=O)Nc2ccc(Cl)cc2)sc1Br	x	1.4
CCCCCCOc1ccc(C(=O)Nc2ccccn2)cc1	-0.23	3.2
COC(=O)Cn1cnc2c1c(=O)[nH]c(=O)n2C	2.1	-3.5
COc1ccc(C2C(C(=O)N3CCN(c4ccccc4OC)CC3)CCC(=O)N2c2ccc(OC)cc2)cc1 (stereo not given)	0.51	1.0
CCC(=O)NC(=S)Nc1ccc(NC(=O)c2ccc(Br)o2)cc1	-0.34	-1.2
CCOC(=O)c1nc(C)sc1-c1ccnn1S(=O)(=O)c1ccccc1C(F)(F)F	x	1.0
N#CC(Cc1ccccc1OC(F)F)c1nc2ccccc2[nH]1 (stereo not given)	x	0.2
O=c1[nH]cc(S(=O)(=O)N2CCCCCC2)c(=O)[nH]1	0.2	-1.5
Cn1c(=O)c2c(SCC(=O)NCCc3ccccc3)nc(C3CC3)nc2n(C)c1=O	-1	0.8
COc1ccc(CNC(=O)c2cc3c(C)nccc3[nH]c2=O)cc1	0.0085	0.9
NNC(=O)c1ccc2c(c1)OCO2	x	0.5
FC(F)(F)c1ccc(Sc2nnc3ccccn23)nc1	x	6.0
COCCNc1nc(-c2ccc(OC)cc2)nc2ccccc12	0.93	-3.7
COc1ccc2c(c1)c(C(=O)ON1C(=O)CCC1=O)c(C)n2C1CC1	x	-3.3
O=C(CSc1n[nH]c(-c2ccco2)n1)N1c2ccccc2Sc2ccccc21	-0.85	0.6
O=S(=O)(c1ccc(Cl)cc1)c1ccccn1	x	3.6
Cc1ccc2[nH]c(O)c(N=O)c2c1	x	0.6
N#Cc1ccccc1NC(=O)CN1CCNC(=O)C1	x	-0.3
O=C(O)c1ccc(COc2ccccc2)cc1	x	4.0
CS(=O)(=O)c1ccccc1-c1nnc(NC(=O)c2cccc(N3C(=O)CCC3=O)c2)o1	0.71	2.1
C=C(C)C1Cc2c(C)nn(S(=O)(=O)c3ccc(C)cc3)c2C1 (stereo not given)	-1.1	0.2
CCOC(=O)c1c(N)sc(C(O)(C(F)(F)F)C(F)(F)F)c1-c1ccc(Cl)cc1	x	2.6
CCOC(=O)c1ncn2c1CN(C)C(=O)c1cc(F)ccc1-2	0.24&-0.036	x
C(=N\N(Cc1ccccc1)Cc1ccccc1)/c1ccco1	-1.1	-0.3
O=CN1N=C(c2ccccc2)CC1c1ccccc1 (stereo not given)	-0.47	0.3
COc1ccccc1CNC(=O)N(C)C	0.016	1.6
CCSC1=NCN(Cc2cccs2)CN1	x	4.2
Nc1nnc(CCCCn2c(-c3nonc3N)nc3ccccc32)s1	-0.42	-2.4
CC1(C)NNC(=S)N(Cc2cccc3ccccc23)C1=O	x	-5.7
CCN(CC)C(=O)CSc1nc(N)c2c3c(sc2n1)COC(C)(CC)C3 (stereo not given)	-0.42	-1.6
CC(C(=O)Nc1cccc(C#N)c1)N(C)Cc1ccc(Cl)cc1 (stereo not given)	x	1.4
COC(=O)C1=C(C)N(CCc2ccc(OC)c(OC)c2)C(=O)/C1=C\c1ccc(N(C)C)cc1	-0.34	11
CC1CC(=O)Nc2ccccc2N1C(=O)COc1ccccc1Br (stereo not given)	x	0.6
Cc1ccc2c(c1)N(CC(=O)c1ccc(F)cc1)C=NS2(=O)=O	0.14	-0.2

Two successive entries already listed:
canonical_smiles	LANA-nucl inh	BasE inh
CC1CC(=O)Nc2ccccc2N1C(=O)COc1ccccc1Br (stereo not given)	x	0.6
Cc1ccc2c(c1)N(CC(=O)c1ccc(F)cc1)C=NS2(=O)=O	0.14	-0.2

Later entries
canonical_smiles	LANA-nucl inh	BasE inh
CS(=O)(=O)N(CCc1ccccc1)CC(=O)N1CCOCC1	2.4	-2.4
CC(C)(C)c1ccc(NC(=O)CN2CCOCC2)c(NC(=O)c2ccco2)c1	0.1	0.6
CC(C)(C)c1ccc(C(=O)N2CCC(C(=O)NC3CC3)CC2)cc1	-0.42	-2.0
CC1CN(Cc2cc(Cl)c3cccnc3c2O)CC(C)O1 (stereo not given)	x	-3.6
COc1cc(NC(=O)C(C)C)ccc1NC(=O)C(C)C	-0.13	1.9
C#CCSc1nnnn1-c1cccc(Cl)c1	0.24	1.1
O=C(Nc1ccccc1)Nc1sccc1-c1nc2ccccc2s1	x	-1.0
NC(=O)c1c(NC(=O)COC(=O)C2CC(=O)N(Cc3ccco3)C2)sc2c1CCC2 (stereo not given)	x	1.8
Cc1ccc2c(c1)-c1onc(C(=O)N(C)c3ccccc3)c1CO2	-1.7	2.8
COc1ccc(N2CCN(C(=O)c3ccc(NC(=O)C4=C(C)OCCS4)cc3)CC2)cc1	1.4	-0.9
CC(C)N(C)NC(=S)Nc1ccccc1	-0.66	1.7
O=C(CSc1nnnn1C1CCCC1)c1ccc(NC(=O)c2ccccc2)cc1	x	-3.1
Cn1c(COc2ccccc2)n[nH]c1=S	0.18	1.4&4.2
COC(=O)CSc1nccc(=O)[nH]1	-1.9	1.8
CC1=C(C(=O)Nc2ccccc2)C(c2ccc(C)cc2)N=C(Nc2nc3ccccc3o2)N1 (stereo not given)	-0.43	-0.1
O=C1CCC(=O)N1CNc1cccc(Cl)c1	x	1.9
COc1ccc(-c2nnsc2N2C(=O)c3ccccc3C2=O)cc1	x	1.0
CC(C)c1ccc(C2C3=C(CC(c4cccs4)CC3=O)Nc3ncnn32)cc1 (stereo not given)	1	-0.4
CC(NCCc1ccc(O)cc1)C(O)c1ccc(O)cc1 (stereo not given)	-0.04&-0.24	-0.2
Cc1oc(-c2ccccc2F)nc1CS(=O)(=O)CC(=O)N1CCCCCC1	1.2	-4.5
CC(C)CC(NC(=O)CC12CC3CC(CC(C3)C1)C2)C(=O)N1CCOCC1 (stereo not given)	0.9	-0.9
O=C(Nc1nnc(C2CCCCC2)s1)c1ccc2c(c1)OCO2	-0.14	0.0
COc1ccc(NC(=O)C2CCN(c3nn4cc(-c5ccc(OC)cc5)nc4s3)CC2)cc1	-0.64	1.0
CCc1cccc(Nc2c3c(nc4ncnn24)CCC3)c1	-1.1	-1.1
CCC(=O)NCc1nc2ccccc2n1C(C)c1ccccc1 (stereo not given)	0.39	-0.7
O=C(O)/C=C/C(=O)Nc1ccc(N2CCOCC2)nc1N1CCOCC1	x	2.2
S=c1nc(-c2ccco2)[nH][nH]1	1.1	-0.2
COc1cccc2c1OC1(C)CC2N(C(=O)c2ccc(Br)o2)C(=S)N1c1ccc(C)cc1 (stereo not given)	1.3	3.6
CN1CCN(/N=c2\cc(-c3ccccc3)oc3ccccc23)CC1	x	-0.8
O=C(O)CN1c2cccc3cccc(c23)S1(=O)=O	x	0.4
COc1ccc(CCNc2ccccc2C(=O)O)cc1OC	x	2.2
Cn1c(=O)c2[nH]c(N3CCCC3)nc2n(C)c1=O	-0.45	1.1
O=C(CCn1[nH]c(=O)c2ccccc2c1=O)OC1CCCCC1	-0.57	1.5
Cn1c(-c2ccccc2)c(C(=O)CSc2nnc3n2CCCCC3)c2ccccc21	x	0.9
Cc1ccc(/C=C/C(=O)OCc2cc(=O)n3cc(Br)ccc3n2)o1	x	3.5
O=C(c1ccc2c(c1)OCO2)N1CCc2ccccc2C1	1.1	1.1
O=C(Cn1nc(Cc2cccnc2)c2ccccc2c1=O)NCCCN1CCCC1=O	1.5	-3.8
CC1CCCCN1C(=O)Nc1noc2c1COc1ccccc1-2 (stereo not given)	1.3	1.4
COc1cc(C(=S)N(C)C)ccc1O	1.2	1.6
O=C1CC(c2ccccc2)n2nc(NC(=O)c3ccco3)nc2N1 (stereo not given)	x	-0.5
CC(C)c1ccc(NC(=S)N=C(N)N)cc1	0.69	2.3
C=CCn1c(Cc2nnc(SCC(=O)c3ccccc3)n2CC=C)nnc1SCC(=O)c1ccccc1	0.75	0.6
Cc1sc2c(c1C)CN(C1CCCC1)CN2C(=O)c1ccccc1	x	-1.4
O=C(Cn1cnc2ccccc21)N/N=C/c1sc(N2CCCCC2)nc1-c1cccs1	x	1.0
CC(C)NC(=O)NCc1ccc(C(=O)OCc2nnc(-c3ccccc3)o2)cc1	x	0.2
COc1ccc(OC)c(N=C2SCCN2C(=O)CC2CCCC2)c1	x	0.9
Cc1cc(N2CCC3(CC2)OCCO3)n2ncnc2n1	-1	1.7
COc1ccc2[nH]c(C(=O)N3CCC(Cc4ccccc4)CC3)cc2c1	x	-0.4

Quoted at random: five records from the list, in no set order.
canonical_smiles	LANA-nucl inh	BasE inh
O=C(Cn1nc(Cc2cccnc2)c2ccccc2c1=O)NCCCN1CCCC1=O	1.5	-3.8
O=C(Cn1cnc2ccccc21)N/N=C/c1sc(N2CCCCC2)nc1-c1cccs1	x	1.0
CC(C)NC(=O)NCc1ccc(C(=O)OCc2nnc(-c3ccccc3)o2)cc1	x	0.2
O=C1CC(c2ccccc2)n2nc(NC(=O)c3ccco3)nc2N1 (stereo not given)	x	-0.5
CC1CCCCN1C(=O)Nc1noc2c1COc1ccccc1-2 (stereo not given)	1.3	1.4

Following part
canonical_smiles	LANA-nucl inh	BasE inh
O=C(c1cccs1)N1CCN(C(=O)C2CCCCC2)CC1	-1.2	0.5
O=C(CCn1[nH]c(=O)ccc1=O)Nc1nc2ccccc2[nH]1	x	1.5
NC(=O)C1CCN(C(=O)CN2CCN(c3ccccn3)CC2)CC1	-1.2	-0.6
CCc1ccc2oc(-c3ccc(NC(=O)CC(C)C)cc3)nc2c1	0.067	-3.6
O=C(O)c1nn(CC(=O)N2N=C3/C(=C/c4ccco4)CCCC3C2c2ccco2)c(=O)c2ccccc12 (stereo not given)	x	1.1
Cc1noc(C)c1COc1cccc(C#N)c1	x	0.6
C=CCN(CC=C)c1nn[nH]n1	-0.15	x
CC(C)(CC(=O)O)CC(=O)Nc1ccc(Oc2ccc(C(C)(C)C)cc2)nc1	x	-0.8
O=C(CCCN=C1NS(=O)(=O)c2ccccc21)Nc1ccc2c(c1)CCC2	x	-3.2
O=Nc1[nH]c2ccc(Br)cc2c1O	-0.0055	1.2
